AF4-AF9 inh: MLL-AF4/AF9 protein interaction inhibition; AID 651704; actives 0.47% (n = 350,000); P42568; inhibition, % at 10 µM; AlphaScreen, biotin-AF4 peptide binding to FLAG-AF9;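 active means every replicate reaching a set inhibition limit, whatever the replicate mean, cut at about 25% in these data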;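 further: 0% = plate neutral control median and 100% = total signal loss; the record names both 10 and 1 µM as test concentration; the first replicate is given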
Target sequence (P42568 whole entry, looked up): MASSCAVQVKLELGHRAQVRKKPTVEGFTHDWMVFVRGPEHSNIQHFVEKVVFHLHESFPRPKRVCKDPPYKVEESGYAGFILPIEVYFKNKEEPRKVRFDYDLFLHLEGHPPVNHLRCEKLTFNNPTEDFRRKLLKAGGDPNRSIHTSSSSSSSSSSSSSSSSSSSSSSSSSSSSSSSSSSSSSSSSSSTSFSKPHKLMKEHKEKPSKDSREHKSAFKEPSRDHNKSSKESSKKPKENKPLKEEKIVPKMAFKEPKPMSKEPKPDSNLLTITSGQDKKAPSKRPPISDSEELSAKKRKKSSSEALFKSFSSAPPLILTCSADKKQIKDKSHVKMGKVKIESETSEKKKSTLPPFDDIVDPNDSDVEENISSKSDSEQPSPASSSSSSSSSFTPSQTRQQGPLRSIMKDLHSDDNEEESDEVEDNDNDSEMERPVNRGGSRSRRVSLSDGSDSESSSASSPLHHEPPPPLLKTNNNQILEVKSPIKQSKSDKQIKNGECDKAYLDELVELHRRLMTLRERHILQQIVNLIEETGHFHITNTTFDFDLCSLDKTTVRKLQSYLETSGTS
rRNA inh HTS: inhibits bacterial ribosomal RNA function over humanized ribosomes; E. coli WT GFP vs humanized-ribosome RFP mutants, fluorescence, 24 h; stronger effect = lower value; DMSO median 0, no signal -100; GFP signal change (wild-type ribosome), % (no concentration beside the values); actives 1.6% (n = 350,000);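 active means significant combined selectivity score with lowered wild-type GFP, culture density cut under 30%, mutant RFP and density less affected; inactive means any of these conditions unmet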; further: one replicate is shown; some compounds called inactive have numbers as strong as hits
FGF22 binding: binders of recombinant human FGF22 by thermal shift; SYPRO orange fluorescence; percent of sucrose octasulfate shift, DMSO zero; calls only at 9.99 µM; actives 1.5% (n = 340,000);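 active means melting point raised past a set limit in the mean and every replicate; three in four hits are not shown here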
Target sequence (Q9HCT0 whole entry, looked up): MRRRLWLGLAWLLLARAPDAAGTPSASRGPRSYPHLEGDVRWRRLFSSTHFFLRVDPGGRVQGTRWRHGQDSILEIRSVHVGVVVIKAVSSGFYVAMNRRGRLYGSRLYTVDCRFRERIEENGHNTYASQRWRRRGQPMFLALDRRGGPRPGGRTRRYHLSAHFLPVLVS
rRNA inh HTS OD600: second read-out of rRNA inh HTS, no call of its own (marks repeat the call); OD600 change, %; measured here: OD600 growth;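 optical density of the mix in the first replicate; 0 = DMSO median and -100 = no signal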
rRNA inh HTS RFP: recorded beside rRNA inh HTS, whose call it bears; RFP signal change, %; measured here: RFP humanized mutant strains;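 first replicate; 0 = DMSO median and -100 = no signal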
Active calls of the source: *; i = inactive; + = active, no number; & = joins results of further samples. A portion of the library; count on the stated rates, not on these rows.

Order of results: AF4-AF9 inh	rRNA inh HTS	rRNA inh HTS OD600	rRNA inh HTS RFP	FGF22 binding
> CC(C)C#Cc1ccc2c(c1)O[C@H](CN(C)CC1CC1)[C@H](C)CN([C@H](C)CO)S2(=O)=O
 : 6.4	4	9	-0.1	i
> COc1ccc(Cc2c(-c3ccc(C#N)cc3)nc3c(Cl)cc(C(F)(F)F)cn23)c(C)c1
 : 5.4	-22	-40	-3.2	i
> Cn1ncc([N+](=O)[O-])c1C(=O)Nc1cc(Cl)ccc1Cl
 : -4.3	-16	-22	-7.8	i
> C[C@@H]1CN([C@@H](C)CO)C(=O)c2cc(NS(=O)(=O)c3ccccc3)ccc2O[C@H]1CN(C)Cc1ccc(C(F)(F)F)cc1
 : 4.8	-2	-17	1.4	i
> CCC(C)N(Cc1ccc(OC)cc1OC)S(=O)(=O)c1cc(Br)ccc1Br (centres undefined)
 : -1.0	6	6	0.3	i
> Cc1ccc(S(=O)(=O)N[C@@H]2CC[C@@H](CCNC(=O)CN3CCOCC3)O[C@@H]2CO)cc1
 : 0.1	3	1	-0.3	i
> COc1ccc2c3c([nH]c2c1)[C@@H](CO)N(Cc1cccnc1)CC31CCN(C(=O)CN(C)C)CC1
 : -0.2	2	4	-1.3	i
> COc1cccc(NC(=O)N[C@@H]2CC[C@@H](CC(=O)NCc3ccccn3)O[C@H]2CO)c1
 : -1.2	2	5	-0.6	i
> Cc1ccc(C=Cc2ccccn2)cc1
 : -1.2	1	4	-3.8	i
> CCC1c2ccccc2C(=O)C1C(N)=O (centres undefined)
 : -1.7	16	24	-0.6	i
> Cc1ccc(S(=O)(=O)N(C)C[C@H]2Oc3ncc(Br)cc3C(=O)N([C@H](C)CO)C[C@@H]2C)cc1
 : -0.1&-1.9&-2.0	-9&-8	-9&7	3.7&-3.4	i
> O=C(c1ccccc1F)N1C[C@H]2[C@@H](c3ccccc31)[C@H](CO)N2C(=O)c1ccc(F)cc1
 : 0.4	2	3	-1.5	i
> O=C(C[C@@H]1CC[C@H](NC(=O)c2ccccc2)[C@@H](CO)O1)Nc1ccc(-c2ccccc2)cc1
 : 0.6	-4	1	1.0	i
> C[C@@H]1CCCCO[C@@H](CN(C)C(=O)C2CCCCC2)[C@H](C)CN([C@@H](C)CO)C(=O)c2cc(NS(=O)(=O)c3ccc(Cl)cc3)ccc2O1
 : 0.2	-1	-4	-0.2	i
> COCC(=O)N(C)C[C@H]1Oc2cc(C#CC3CC3)ccc2S(=O)(=O)N([C@H](C)CO)C[C@H]1C
 : -1.9	-3	7	-1.5	i

Continued, starting with the last 4 of the part before.
Order of results: AF4-AF9 inh	rRNA inh HTS	rRNA inh HTS OD600	rRNA inh HTS RFP	FGF22 binding
> O=C(c1ccccc1F)N1C[C@H]2[C@@H](c3ccccc31)[C@H](CO)N2C(=O)c1ccc(F)cc1
 : 0.4	2	3	-1.5	i
> O=C(C[C@@H]1CC[C@H](NC(=O)c2ccccc2)[C@@H](CO)O1)Nc1ccc(-c2ccccc2)cc1
 : 0.6	-4	1	1.0	i
> C[C@@H]1CCCCO[C@@H](CN(C)C(=O)C2CCCCC2)[C@H](C)CN([C@@H](C)CO)C(=O)c2cc(NS(=O)(=O)c3ccc(Cl)cc3)ccc2O1
 : 0.2	-1	-4	-0.2	i
> COCC(=O)N(C)C[C@H]1Oc2cc(C#CC3CC3)ccc2S(=O)(=O)N([C@H](C)CO)C[C@H]1C
 : -1.9	-3	7	-1.5	i
> C[C@H]1CN([C@@H](C)CO)C(=O)c2cccc(NS(=O)(=O)c3ccc(Cl)cc3)c2O[C@@H]1CN(C)C(=O)NC1CCCCC1
 : -2.3	0	5	1.9	i
> O=C(Nc1ccccc1)c1cc(C2CCCN(C(=O)c3ccccc3)C2)on1 (centres undefined)
 : -3.4	-2	-4	-0.5	i
> COc1cccc(C=C2SC(=S)NC2=O)c1
 : 1.2	-5	4	17	i
> C[C@@H]1CN([C@H](C)CO)S(=O)(=O)c2ccc(Br)cc2O[C@H]1CN(C)C(=O)Cc1ccccn1
 : 1.1&-1.5	3&3	-5&5	2.7&-5.3	i
> N#C[C@H]1[C@@H](c2ccc(C#CC3CCCC3)cc2)[C@H](CO)N1S(=O)(=O)c1ccccc1
 : -0.2	-15	-45	36	i
> CCCC#Cc1ccc2c(c1)O[C@@H](CN(C)C(=O)c1ccccc1)[C@@H](C)CN([C@H](C)CO)S2(=O)=O
 : 5.3	-1	-16	-0.4	i
> CCNC(=O)C[C@@H]1CC[C@H](NS(=O)(=O)c2ccc(F)cc2)[C@H](CO)O1
 : -1.2	1	6	-4.7	i
> N#C[C@H]1[C@@H](c2ccccc2)[C@H](CO)N1C(=O)Cc1ccccn1
 : -0.4	3	6	0.5	i
> O=C(CN1CCOCC1)N1CC(=O)N2[C@@H](CO)[C@H](c3ccc(/C=C/c4ccccc4)cc3)[C@@H]2C1
 : 1.3	4	13	4.7	i
> C[C@@H]1CCCCO[C@H](CN(C)C)[C@H](C)CN([C@H](C)CO)C(=O)c2cc(NS(=O)(=O)c3ccc(Cl)cc3)ccc2O1
 : -2.9	1	-5	-0.4	i
> CCCC#Cc1cnc2c(c1)C(=O)N([C@H](C)CO)C[C@@H](C)[C@@H](CN(C)C(=O)NC1CCCC1)O2
 : -3.3	7	-6	2.3	i
> C[C@@H]1CN([C@@H](C)CO)C(=O)c2cccc(NC(=O)C3CCOCC3)c2O[C@@H]1CN(C)Cc1ccc(C(=O)Nc2ccccc2N)cc1
 : 9.5	1	5	-4.3	i
> C[C@@H]1CN([C@@H](C)CO)C(=O)c2cc(NS(=O)(=O)c3ccccc3)ccc2O[C@@H](C)CCCCO[C@H]1CN(C)C
 : 2.5	1	4	0.3	i
> C[C@@H]1CN([C@@H](C)CO)C(=O)c2cc(/C=C/c3ccccc3)cnc2O[C@@H]1CN(C)S(=O)(=O)c1ccccc1F
 : 4.4	-2	-2	3.7	i
> CCCNC(=O)C[C@H]1C[C@H]2c3cc(NC(=O)Nc4ccccc4F)ccc3O[C@H]2[C@H](CO)O1
 : -5.7	2	5	-3.1	i

Order of results: AF4-AF9 inh	rRNA inh HTS	rRNA inh HTS OD600	rRNA inh HTS RFP	FGF22 binding
> CN(C)CC(=O)N1C[C@@H]2[C@H](c3ccccc31)[C@H](CO)N2Cc1cc(F)ccc1F
 : 1.9	2	0	2.4	i
> COc1cc(NC(=O)[C@@H]2O[C@H](CO)[C@@H](O)[C@H]2O)cc(OC)c1OC
 : 1.9	9	15	1.7	i
> COc1ccc(Nc2nc(C)c(C(C)=O)s2)cc1
 : -5.2	7	15	-3.1	i
> COC(=O)C[C@H]1C[C@@H]2c3cc(NS(=O)(=O)c4ccc(F)cc4)ccc3O[C@@H]2[C@H](CO)O1
 : 1.3	-1	-1	1.6	i
> C[C@H]1CN([C@@H](C)CO)S(=O)(=O)c2ccc(C#CC3CC3)cc2O[C@H]1CN(C)C(=O)CC1CC1
 : 3.5	-7	-10	6.1	i
> CCC(=O)N1[C@H](CO)[C@@H](c2ccccc2)C12CN(Cc1ccccc1F)C2
 : -0.5	3	-7	-1.6	i
> COCC(=O)N1CCC2(CC1)CN(Cc1cccc(F)c1)[C@H](CO)c1c2c2ccc(OC)cc2n1C
 : -0.5	9	-8	2.3	i
> CC(C)(C)OC(=O)N1CCC(C(=O)Nc2ccc(C(=O)NCc3ccccc3)cc2)CC1
 : 0.2	17	12	0.5	i
> CNC[C@H]1Oc2ccc(NS(=O)(=O)c3cn(C)cn3)cc2CC(=O)N([C@H](C)CO)C[C@@H]1C
 : -4.1	1	-2	-1.2	i
> CC(C)[C@@H](C)NC(=O)N(C)C[C@H]1OCc2ccccc2-c2c(n(C)c3ccccc23)C(=O)N([C@@H](C)CO)C[C@@H]1C
 : -5.0	-1	4	-3.0	i
> CCCNC(=O)C[C@@H]1C[C@H]2c3cc(NC(=O)Nc4ccccc4F)ccc3O[C@H]2[C@H](CO)O1
 : -3.9	-4	-12	1.5	i
> C[C@H](CO)N1C[C@H](C)[C@@H](CN(C)Cc2ccc(C(=O)Nc3ccccc3N)cc2)Oc2ccc(NS(=O)(=O)c3ccc(Cl)cc3)cc2C1=O
 : -5.3	-1	7	-2.6	i
> Cc1ccc(S(=O)(=O)N2CCC(=O)N([C@H](COC(=O)Nc3ccccc3)Cc3ccccc3)CC2)cc1
 : -1.2	-6	-3	-3.1	i
> CCCNC(=O)N(C)C[C@@H]1Oc2cc(C#C[C@@H](C)O)ccc2S(=O)(=O)N([C@@H](C)CO)C[C@H]1C
 : -0.4	5	16	-0.4	i
> CC(C)NC(=O)Nc1ccc2c(c1)CC(=O)N([C@@H](C)CO)C[C@@H](C)[C@@H](CN(C)Cc1ccc(C(=O)O)cc1)O2
 : -0.8	6	5	-3.2	i

Order of results: AF4-AF9 inh	rRNA inh HTS	rRNA inh HTS OD600	rRNA inh HTS RFP	FGF22 binding
> C[C@@H]1CN([C@@H](C)CO)C(=O)Cc2cc(NC(=O)c3ccncc3)ccc2O[C@H]1CN(C)C(=O)Nc1ccc2c(c1)OCO2
 : -2.5	1	1	-1.2	i
> CC(C)NC(=O)NCC[C@H]1CC[C@@H](NC(=O)CN(C)C)[C@@H](CO)O1
 : 2.1	2	1	0.3	i
> CCCNC(=O)N(C)C[C@H]1Oc2ncc(C#CCc3ccccc3)cc2C(=O)N([C@H](C)CO)C[C@H]1C
 : 3.3&0.1	-4&1	0&-8	-0.5&0.5	i
> Cc1cc(C(=O)Nc2cccc3c2O[C@@H](CN(C)C(=O)Nc2ccc4c(c2)OCO4)[C@@H](C)CN([C@H](C)CO)C3=O)n(C)n1
 : -3.0	-9	-2	-0.4	i
> CC(=O)N1CCCCN2[C@H](CO)[C@@H](c3ccc(-c4ccncc4)cc3)[C@@H]2C1
 : 2.2	4	31	-1.4	i
> CO[C@@H]1CN(C)C(=O)c2ccc(NS(=O)(=O)c3ccccc3)cc2OC[C@H](C)N(Cc2ccccn2)C[C@@H]1C
 : 2.0	0	-2	0.0	i
> C[C@H](CO)NC(=O)c1nc[nH]c1C(=O)N[C@H](C)c1ccccc1
 : -0.8	17	16	2.5	i
> C[C@H]1CN([C@@H](C)CO)C(=O)c2cc(C#CCN(C)C)cnc2O[C@@H]1CN(C)Cc1ccncc1
 : 0.3	2	4	0.9	i
> CC(C)NC(=O)N(C)C[C@H]1Oc2ncc(C#Cc3ccncc3)cc2C(=O)N([C@@H](C)CO)C[C@H]1C
 : -5.9	3	2	0.7	i
> C[C@@H]1CN([C@H](C)CO)C(=O)Cc2cc(N(C)C)ccc2O[C@H]1CN(C)S(=O)(=O)c1cn(C)cn1
 : -22	4	22	0.0	i
> O=C(C[C@@H]1C[C@@H]2c3cc(NS(=O)(=O)c4ccc(F)cc4)ccc3O[C@@H]2[C@H](CO)O1)N1CCc2ccccc2C1
 : 0.6&1.5	-4	-15	0.9	i
> Cc1cccc(OC(=O)c2ccc3c(=O)n4c(nc3c2)CCC4)c1
 : 0.2	2	-1	-0.4	i
> CO[C@H]1CN(C)C(=O)c2cc(NC(=O)C3CC3)ccc2OC[C@H](C)N(Cc2ccncc2)C[C@@H]1C
 : 0.3	-1	-3	-1.2	i
> O=C(C[C@H]1CC[C@H]2[C@@H](COC[C@H](O)CN2S(=O)(=O)c2cccc(Cl)c2)O1)NCCCN1CCOCC1
 : -0.7	-2	-3	-3.3	i
> Cc1noc(C)c1S(=O)(=O)Nc1ccc2c(c1)C(=O)N([C@@H](C)CO)C[C@@H](C)[C@H](CN(C)C(=O)NC(C)C)O2
 : -5.4	1	3	0.9	i

Order of results: AF4-AF9 inh	rRNA inh HTS	rRNA inh HTS OD600	rRNA inh HTS RFP	FGF22 binding
> C[C@@H]1CN([C@H](C)CO)C(=O)c2cc(C#CC(C)(C)O)cnc2O[C@H]1CN(C)Cc1cccc(C(=O)O)c1
 : -5.1	-1	4	-4.0	i
> C[C@@H]1CN([C@@H](C)CO)C(=O)c2cc(NC(=O)CCCCCC(=O)Nc3ccccc3N)ccc2O[C@H]1CN(C)S(=O)(=O)c1ccccc1
 : -0.6	-2	-11	-1.5	i
> CC(=O)c1ccc(OC2(C)CCN(Cc3cc4ccccc4[nH]3)C2)cc1 (centres undefined)
 : -0.3	-2	1	-0.5	i
> C[C@@H]1CN([C@@H](C)CO)C(=O)Cc2cc(NS(=O)(=O)c3ccc(F)cc3)ccc2O[C@@H]1CN(C)S(=O)(=O)c1cccs1
 : 1.6	-3	-14	2.9	i
> O=C(C[C@H]1C[C@@H]2c3cc(NC(=O)c4ccc5c(c4)OCO5)ccc3O[C@@H]2[C@@H](CO)O1)NCCN1CCCCC1
 : 6.0	0	-4	0.3	i
> CC(=O)N1[C@H](CO)[C@@H](c2ccccc2)C12CN(C(=O)c1ccccn1)C2
 : -14	1	5	-1.5	+
> O=C(Nc1ccc2c(c1)OCO2)c1cc(C2CCCCN2S(=O)(=O)c2cccs2)on1 (centres undefined)
 : 0.4	-7	-11	-0.2	i
> CC(C)NC(=O)N(C)C[C@H]1Oc2ccc(NC(=O)Nc3ccccc3)cc2CC(=O)N([C@H](C)CO)C[C@@H]1C
 : 3.9	2	-5	-2.2	i
> CCNC(=O)[C@H]1[C@H](CO)[C@H]2Cn3c(ccc(-c4ccccc4)c3=O)[C@H]2N1Cc1cccnc1
 : -0.3	1	5	1.4	i
> O=C(C1CCCCC1)N1[C@@H](CO)[C@@H]2c3ccccc3NC[C@@H]21
 : -0.9	3	5	-2.2	i

From PubChem BioAssay
